High-throughput results deposited in PubChem by National Center for Advancing Translational Sciences (NCATS).
D2 agonist: human D2 receptor agonism in beta-arrestin assay. P14416. DiscoveRx PathHunter D2 beta-arrestin, luminescence, 90 min; 100% = 57 uM dopamine signal. activation, % (no concentration beside the values). 360,000 tested, 0.084% active. AID 624465; in the data active = activation above about 40%; inconclusive = about 15% to 40%; inactive = below about 15%; further: compound concentration not given in the record; the text of the record calls up to 30% inactive
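DiscoveRx PathHunter D2 beta-arrestin cells (2,100/well) attached overnight, then compound-stimulated 90 min at 37 C in HBSS/10 mM HEPES/0.1% Tween-20 buffer; beta-galactosidase complementation read by luminescence after 1 h at ambient temperature. Dopamine 57 uM final (EC100) as control.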
Six1-Eya2 blk: inhibitors of human Six1/Eya2 interaction | 360,000 tested, 0.56% active | AlphaScreen GST-Six1/His-Eya2 binding, biochemical; active compounds read low; control for the full effect not named in the record | activity change, % (no concentration beside the values) | AID 651725; in the data active = activity change below about -65%; inconclusive = about -30% to -65%; inactive = above about -30%; further: on the % scale 0 is the no-effect control and ±100 the full control effect
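AlphaScreen luminescence read after one hour at 37 °C in darkness. Pin-transferred compounds met GST-Six1 and His-Eya2 protein (5X stock 250 nM/500 nM) plus glutathione donor and Ni-chelate acceptor beads (5X, 50 ug/mL).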
TRPV1 PAM: potentiators of human vanilloid receptor 1 (TRPV1); Q8NER1; TRPV1-expressing cells, Fluo-8 calcium influx, capsaicin EC20 potentiation; host cell line not named in the record; control for the full effect not named in the record; potentiation, % at 8.33 µM; 320,000 tested, 0.02% active; AID 540277; active means potentiation above 80%; inconclusive means 30% to 80%; inactive means below 30%; further: 0% is about no effect
Target sequence (Q8NER1 whole entry, looked up): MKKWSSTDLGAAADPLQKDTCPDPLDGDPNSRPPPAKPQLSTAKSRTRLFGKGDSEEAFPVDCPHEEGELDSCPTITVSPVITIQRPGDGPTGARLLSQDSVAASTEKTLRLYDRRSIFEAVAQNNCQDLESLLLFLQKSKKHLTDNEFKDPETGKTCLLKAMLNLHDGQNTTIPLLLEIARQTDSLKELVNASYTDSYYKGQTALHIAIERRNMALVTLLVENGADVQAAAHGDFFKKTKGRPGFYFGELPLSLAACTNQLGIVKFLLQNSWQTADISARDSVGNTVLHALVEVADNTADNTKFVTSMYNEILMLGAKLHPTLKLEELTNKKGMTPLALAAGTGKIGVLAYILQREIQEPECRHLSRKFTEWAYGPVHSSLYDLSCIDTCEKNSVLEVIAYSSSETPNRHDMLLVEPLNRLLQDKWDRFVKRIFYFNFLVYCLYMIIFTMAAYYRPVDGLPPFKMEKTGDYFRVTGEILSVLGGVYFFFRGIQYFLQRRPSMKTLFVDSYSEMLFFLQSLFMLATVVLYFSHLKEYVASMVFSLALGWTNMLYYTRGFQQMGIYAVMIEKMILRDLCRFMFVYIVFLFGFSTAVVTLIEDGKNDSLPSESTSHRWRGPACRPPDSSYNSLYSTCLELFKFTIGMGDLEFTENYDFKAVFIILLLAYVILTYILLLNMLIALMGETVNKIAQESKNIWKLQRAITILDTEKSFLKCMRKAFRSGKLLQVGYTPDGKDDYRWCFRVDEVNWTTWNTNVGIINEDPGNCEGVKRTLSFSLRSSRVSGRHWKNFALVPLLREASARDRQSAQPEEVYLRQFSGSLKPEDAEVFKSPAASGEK
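TRPV1-expressing cells were cultured overnight at 35.5C and loaded with Fluo-8 calcium dye for 40 to 90 min at room temperature. After a 10 s baseline, compound was added and calcium influx was read kinetically for 3 min (ex 480/em 520 nm).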
Sfp inh: Sfp phosphopantetheinyl transferase inhibition; Q9F4F7; Biochemical Sfp PPTase activity, qHTS; Potency, µM, for the others: max response, negative = inhibition, actives largely listed as inhibitors; 310,000 tested, 3.5% active; active means well fitted inhibition curve with a large enough effect; inconclusive means small, poorly fitted or top-dose-only effect, or another doubt; inactive means no such curve, though single readings can be large or run the other way;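 further: the enzyme is Sfp with the accession as filed and its product quenches rhodamine fluorescence; potency means the concentration at half of the fitted maximal effect; 0% = enzyme reaction without inhibitor and -100% = no enzyme wells; top concentration of the series not given in the record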
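Fluorescence-quenching assay: 15 nM Sfp-PPTase preincubated 15 min at room temperature with compound, then 5 uM rhodamine-CoA and 12.5 uM BHQ-2-labelled YbbR peptide added. Fluorescence (ex 525/em 598 nm) read at start and after 30 min; difference gives rate.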
CtBP-E1A inh: CtBP/E1A binding inhibition | AlphaScreen GST-E1A/His-CtBP binding, 1536-well; active compounds read low; control for the full effect not named in the record | activity change, % (no concentration beside the values) | 340,000 tested, 0.49% active | AID 651724; in the data active means activity change below about -65%; inconclusive means about -30% to -65%; inactive means above about -30%; further: on the % scale 0 is the no-effect control and ±100 the full control effect
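Protein mix (5X: 125 nM each GST-E1A, His-CtBP) was incubated with pinned compound 2 h at 37 deg C in dark, in 50 mM Tris pH 8.0 buffer with 300 mM NaCl. Glutathione donor and nickel acceptor beads followed; AlphaScreen signal read after 1 h.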
D2 PAM: positive allosteric modulators of human D2 dopamine receptor. P14416. DiscoveRx D2 beta-arrestin cells, luminescence, 90 min; 100% = 57 uM dopamine signal. potentiation, % (no concentration beside the values). 360,000 tested, 0.23% active. AID 624464; active = potentiation of 50% or more; inconclusive = 30% to 50%; inactive = 30% or less;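 further: compound concentration not given in the record; tested on top of an EC20 dose of dopamine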
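PathHunter beta-arrestin assay in DiscoveRx D2 cells. Compounds were added with an EC20 of dopamine (50 nM final) for 90 min at 37 deg C. Luminescence was read 1 h after detection reagent, with 57 uM dopamine as the EC100 control.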
PINK1 expr mod: PINK1 expression modulation; PINK1 immunofluorescence, high-content cytometry, 24 h; Potency, µM (titrated, usually from 76.6 µM), for the others: top-dose activation (PINK1 increase), actives largely listed as activators; 410,000 tested, 0.2% active; AID 624263; active = well fitted activation curve with a large enough effect; inconclusive = small, poorly fitted or top-dose-only effect; inactive = flat fitted curve, though single readings scatter; cell line not stated here;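 further: potency means the concentration at half of the fitted maximal effect; % of control where 0% means no effect; nearly all actives have a fitted effect of over 65% in size; a mitochondrial uncoupler was the plate control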
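A stable cell line was treated with compounds at 5 concentrations for 24 hours, with CCCP as control. PINK1 levels and mitochondrial localization were measured by immunofluorescence with mitochondrial, cell and nuclear markers after fixation, read by laser-scanning cytometry.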
* = called active by the depositor; u = inconclusive; x = not tested or not shown; & = joins results of further samples.

#	molecule	D2 agonist	Six1-Eya2 blk	TRPV1 PAM	Sfp inh
1	Cc1nnsc1C(=O)NNc1c(Cl)cccc1Cl	-2.2	4	-3	-1%
2	CCOC(=O)C1CCCN(C(=O)c2ccc3c(c2)OCCO3)C1 (stereo not given)	-4.2	2	10	x
3	O=C(c1ccc2c(=O)n(Cc3ccccc3)c(=S)[nH]c2c1)N1CCOCC1	-1.6	-8	26	-6%
4	CN(C(=O)c1cc2n(n1)C(C(F)(F)F)CC(c1ccco1)N2)c1ccc(OC(F)(F)F)cc1 (stereo not given)	2.8	1	-6	u
5	CCOc1ccc2nc(SCC(=O)NNC(=O)c3ccco3)c(C)cc2c1	-3.1	4	4	11%
6	O=C(OC(C(=O)NCC1CCCO1)c1ccc(F)cc1)c1ccco1 (stereo not given)	-3.2	12	u	10%
7	CC(OC(=O)C1=NNC(=O)CC1)C(=O)Nc1ncc(Cl)cc1Cl (stereo not given)	-5.9	12	-8	17%
8	O=C(NC(Cc1ccccc1)C(=O)O)/C(=C/c1ccccc1)NC(=O)c1ccco1 (stereo not given)	-1.2	0	30	19%
9	CNC(=O)c1ccc(N(Cc2ccccc2)S(C)(=O)=O)cc1	-1.7	0	-8	13%
10	CC(Sc1nn(-c2ccccc2)c(=S)s1)C(=O)NCC1CCCO1 (stereo not given)	-0.9	-6	-23	x
11	Cc1ccc(C(=O)OCC(=O)Nc2c(Cl)cc(S(N)(=O)=O)cc2Cl)o1	-3.0	3	-13	18%
12	COc1ccc(C(=O)OCc2cc(=O)oc3c(C)c(C)ccc23)cc1S(=O)(=O)N1CCOCC1	-1.6	6	x	x

#	CtBP-E1A inh	D2 PAM	PINK1 expr mod
1	4	-3	1.8%
2	8	-8	1.0%
3	5	-4	10%
4	-4	1	8.1%
5	-1	-6	2.6%
6	-1	1	-0.3%
7	-6	-2	2.3%
8	11	5	-0.6%
9	9	29	-1.6%
10	x	-15	2.9%
11	3	-3	-0.7%
12	3	-10	-1.0%

Next entries:
#	molecule	D2 agonist	Six1-Eya2 blk	TRPV1 PAM	Sfp inh
13	CC(C)CC(C(=O)Nc1ccccc1)N1C(=O)C2C3C=CC(C3)C2C1=O (stereo not given)	-0.2	5	27	2%
14	CN(C)S(=O)(=O)c1cccc(NC(=S)N/N=C/c2ccc(O)c(O)c2O)c1	5.5	-93*	11	3.2µM*
15	COc1ccc(OC)c(N(CC(=O)NC2CC2)S(=O)(=O)c2ccc(C)cc2)c1	-0.1	0	-2	-14%
16	CN(C)/C=C(/C(=O)c1ccc(Cl)c(Cl)c1)S(C)(=O)=O	-3.8	1	u	15%
17	C=CCN1C(=O)c2ccc(C(=O)N(C)Cc3ccc(C)o3)cc2C1=O	-3.5	0	0	x
18	O=C(CCC1CCCN(C(=O)c2cccs2)C1)N1CCN(c2ccccn2)CC1 (stereo not given)	6.1	2	11	-2%
19	COC(=O)CCN(C(=O)C12CC3CC(CC(C3)C1)C2)c1ccccn1	u	12	5	-9%
20	COCCn1c(=S)[nH]c2cc(C(=O)NCc3ccccc3)ccc2c1=O	-1.2	5	x	x
21	CCOc1ccc(NC(=O)CN(C)CC(=O)NC2CCCc3ccccc32)cc1OCC (stereo not given)	0.9	-7	20	-5%
22	COc1ccc(C(=O)Nc2ccccc2NC(=O)c2ccco2)cc1OC	-3.4	3	8	4%
23	Cc1ccc(C)c(N2CCN(C(=O)Cc3ccc(NC4=NC5CS(=O)(=O)CC5S4)cc3)CC2)c1 (stereo not given)	2.1	-5	-21	6%
24	C[C@H](NC(=O)C1CCN(S(=O)(=O)c2ccccc2)CC1)C(=O)NCc1ccc(Cl)c(Cl)c1	1.0	-3	-2	14%

#	CtBP-E1A inh	D2 PAM	PINK1 expr mod
13	0	3	-0.1%
14	-97*	21	-0.4%
15	4	-5	-1.3%
16	0	1	-0.4%
17	5	-23	-1.2%
18	15	-1	-1.0%
19	1	u	-0.1%
20	12	-21	7.2%
21	-2	-1	-1.8%
22	7	-3	-2.0%
23	-1	-2	0.8%
24	x	-10	2.3%

Sorted by formula weight (smallest number first): 3 of the compounds above
#	molecule	D2 agonist	Six1-Eya2 blk	TRPV1 PAM	Sfp inh
17	C=CCN1C(=O)c2ccc(C(=O)N(C)Cc3ccc(C)o3)cc2C1=O	-3.5	0	0	x
19	COC(=O)CCN(C(=O)C12CC3CC(CC(C3)C1)C2)c1ccccn1	u	12	5	-9%
15	COc1ccc(OC)c(N(CC(=O)NC2CC2)S(=O)(=O)c2ccc(C)cc2)c1	-0.1	0	-2	-14%

#	CtBP-E1A inh	D2 PAM	PINK1 expr mod
17	5	-23	-1.2%
19	1	u	-0.1%
15	4	-5	-1.3%

Further compounds:
#	molecule	D2 agonist	Six1-Eya2 blk	TRPV1 PAM	Sfp inh
25	CC(C)[C@H](N)C(=O)N[C@H]1CCC2C3CC=C4C[C@@H](O)CC[C@]4(C)C3CC[C@@]21C (stereo not given in full)	-3.8	2	x	x
26	O=C(N[C@@H](Cc1c[nH]c2ccccc12)C(=O)NC1CC1)c1ccccc1Cl	-3.0	11	0	9%
27	CCOC(=O)[C@]12CCC=C1N(Cc1cccc3ccccc13)C(=O)[C@H](CC(=O)NCCCN1CCCC1=O)C2	x	-1	x	x
28	O=S(=O)(NCCN1CCOCC1)c1cccc(C(F)(F)F)c1	1.0	8	-7	19%
29	Cc1ccc(C(=O)N/C(=C\c2ccc3c(c2)OCO3)C(=O)N2CCOCC2)cc1	-2.5	0	5	8%
30	CC(C)c1ccccc1NC(=S)NCc1ccccc1F	3.4	-7	1	19%
31	COc1ccc(Br)cc1CN(C)C(=O)c1cc(Cl)c2c(c1)OCCO2	-2.0	-7	17	-4%
32	COc1ccc2cc(C3CC(c4ccco4)=NN3C(=O)CCC(=O)O)c(Cl)nc2c1 (stereo not given)	-2.2	2	-1	50µM*
33	CC(C)(C)C(=O)[C@H]1[C@H](c2ccccc2)[C@@]2(N=C(c3ccccc3)OC2=O)C2c3ccccc3C=NN21 (stereo not given in full)	3.5	-10	28	3%
34	COc1ccc(NC(=O)CN2C(=O)C(C)Oc3ccccc32)cc1OC (stereo not given)	2.5	5	2	21%
35	CC(C)c1ccc(NC(=O)CCN2C(=O)[C@@H]3Cc4ccccc4CN3C2=O)cc1	-1.9	2	-1	4%
36	CN(CC1CCOCC1)C(=O)CC1C(=O)NCCN1Cc1cccc(F)c1 (stereo not given)	-2.1	13	2	7%

#	CtBP-E1A inh	D2 PAM	PINK1 expr mod
25	0	-11	-1.4%
26	0	-27	4.9%
27	1	x	-0.3%
28	0	-2	0.9%
29	1	-11	1.4%
30	-3	-5	-0.1%
31	1	-5	0.6%
32	4	-3	0.2%
33	-23	26	2.6%
34	-9	-23	-0.6%
35	-4	-7	-0.2%
36	1	-2	-0.1%

Going on with the list.
#	molecule	D2 agonist	Six1-Eya2 blk	TRPV1 PAM	Sfp inh
37	CC1Cc2ccccc2N1C(=O)Cn1cnc2c1c(=O)n(C)c(=O)n2C (stereo not given)	-3.9	-17	-13	7%
38	O=C(CSc1nnc(-c2ccncc2)s1)Nc1ccccc1	1.8	4	8	19%
39	Cc1noc(C)c1COc1ccccc1C(=O)NNC(=O)c1ccc(F)cc1	1.3	2	-17	x
40	COc1cccc(C(=O)C2CCCN(CC3=Cc4cc(OC)ccc4OC3)C2)c1 (stereo not given)	0.8	u	-6	11%
41	Cc1cccc(NC(=O)[C@@H](CC(C)C)NC(=O)[C@@H]2Cc3ccccc3CN2)c1	-6.3	0	-22	0%
42	COc1ccc(Cc2nnc(NC(=O)c3ccc(OC(C)=O)cc3)s2)cc1OC	-0.8	-16	4	19%
43	COc1ccc(F)cc1CSc1nnnn1-c1ccc(O)cc1	6.4	0	13	-6%
44	O=C(/C=C/c1ccc(Br)cc1)NC(=S)Nc1ccc(S(=O)(=O)Nc2nccs2)cc1	-5.4	2	16	15%
45	CNC[C@H](O)c1cccc(O)c1	2.2	-4	-7	12%&2%
46	CC(=O)NC12CC3CC(C1)CC(C(=O)N1CCN(c4ncccn4)CC1)(C3)C2	-2.9	4	x	x
47	C=COCCNC(=S)Nc1ccccc1	-4.0	1	6	5%
48	O=C(OCC(=O)N1CCc2ccccc2C1)c1cccs1	-1.5	3	-2	19%

#	CtBP-E1A inh	D2 PAM	PINK1 expr mod
37	-6	20	-0.4%
38	1	-3	1.5%
39	x	16	-0.3%
40	-18	-9	-1.2%
41	-3	-22	-1.2%
42	-20	-6	-0.1%
43	2	4	13%
44	-1	4	5.7%
45	10	5	0.2%
46	2	15	-1.6%
47	-2	-3	-1.8%
48	25	-13	-0.1%

Next part:
#	molecule	D2 agonist	Six1-Eya2 blk	TRPV1 PAM	Sfp inh
49	Cc1cc(C)c(NC(=O)CN2C(=O)CC(C)S(=O)(=O)c3ccccc32)c(C)c1 (stereo not given)	-0.3	1	3	6%
50	Cc1cccc(C(C)C)c1NS(=O)(=O)c1cn(C)nc1C	-0.6	7	2	1%
51	O=C(OCc1nnc(-c2ccccc2)o1)c1cc(F)c(F)cc1Cl	3.2	31	-14	-24%
52	COc1ccc(C2=NOC(C(=O)NCc3cccs3)C2)cc1 (stereo not given)	-1.2	2	-4	14%
53	COc1ccc(NC(=O)CCS(=O)(=O)c2cccc3nonc23)c(OC)c1	-1.1	0	1	10%
54	CC(C)Nc1nc2c(c(=O)n(C)c(=O)n2C)n1C	-5.0	-12	9	3%
55	COCCCN1CCc2[nH]c(=S)[nH]c(=O)c2C1	-2.3	-3	-13	50µM*
56	O=C(Cn1nnc(-c2cccs2)n1)N1CCc2ccccc2C1	-1.0	4	-7	6%

#	CtBP-E1A inh	D2 PAM	PINK1 expr mod
49	0	-10	0.3%
50	8	0	0.1%
51	24	-4	0.1%
52	7	-1	5.4%
53	5	2	-2.5%
54	x	-10	-0.4%
55	7	-15	2.7%
56	4	-2	2.0%

Retrieved by structure from above, 3 records:
#	molecule	D2 agonist	Six1-Eya2 blk	TRPV1 PAM	Sfp inh
49	Cc1cc(C)c(NC(=O)CN2C(=O)CC(C)S(=O)(=O)c3ccccc32)c(C)c1 (stereo not given)	-0.3	1	3	6%
55	COCCCN1CCc2[nH]c(=S)[nH]c(=O)c2C1	-2.3	-3	-13	50µM*
53	COc1ccc(NC(=O)CCS(=O)(=O)c2cccc3nonc23)c(OC)c1	-1.1	0	1	10%

#	CtBP-E1A inh	D2 PAM	PINK1 expr mod
49	0	-10	0.3%
55	7	-15	2.7%
53	5	2	-2.5%
